Assay outcomes as filed in PubChem.
PABP polyA inh: PABP-poly(A) binding inhibition; P11940; PABP-poly(A) RNA binding, fluorescence polarization; inhibition, % at 35 µM; 1% of 290,000 active; AID 2014;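 active means 50% or more with normal probe brightness, or confirmed in later tests; inconclusive means above 50% with abnormal brightness, or retests that disagree; inactive means below 50% or failed in later tests; about a fifth of its hits are not listed in these tables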;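 further: calls also rest on retests at 20 µM and on dose response follow-up; controls were probe without protein and protein plus probe with vehicle; some compounds called inactive have numbers as strong as hits; many hits fall short of the cut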
Target sequence (P11940 whole entry, looked up): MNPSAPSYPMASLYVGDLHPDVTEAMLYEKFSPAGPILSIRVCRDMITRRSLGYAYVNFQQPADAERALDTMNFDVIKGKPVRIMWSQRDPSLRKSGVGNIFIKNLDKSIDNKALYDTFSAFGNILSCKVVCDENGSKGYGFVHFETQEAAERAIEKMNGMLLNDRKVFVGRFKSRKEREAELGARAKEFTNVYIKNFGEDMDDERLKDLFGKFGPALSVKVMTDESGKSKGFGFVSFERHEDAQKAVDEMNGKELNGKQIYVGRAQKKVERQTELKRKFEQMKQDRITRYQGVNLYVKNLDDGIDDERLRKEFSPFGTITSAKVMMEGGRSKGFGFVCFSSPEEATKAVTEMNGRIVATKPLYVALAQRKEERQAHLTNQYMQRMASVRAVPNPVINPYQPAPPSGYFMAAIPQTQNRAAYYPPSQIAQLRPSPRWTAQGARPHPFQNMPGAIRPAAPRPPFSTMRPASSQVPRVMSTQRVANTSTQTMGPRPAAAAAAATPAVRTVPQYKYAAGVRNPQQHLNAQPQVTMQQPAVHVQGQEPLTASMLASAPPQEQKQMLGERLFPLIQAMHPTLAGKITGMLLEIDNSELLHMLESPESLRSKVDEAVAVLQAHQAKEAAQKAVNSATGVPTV
Rce1 inh: blocks yeast Ras-converting enzyme. yeast membranes, quenched prenylated peptide cleavage fluorescence. AID 2563. 0.27% of 290,000 active. calls only;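 active means fall in fluorescence gain of 50% or more versus controls, with final raw signal at or below 3038400; inconclusive means same 50% fall but final raw signal above 3038400; inactive means fall in fluorescence gain under 50%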;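 further: plate controls were neutral control wells for no effect and wells lacking membranes for full effect; tested at 10 µM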
UUG fidelity: alters start codon recognition fidelity in yeast. AID 602363. S. cerevisiae UUG-firefly luciferase reporter, luminescence/redox ratio. 0.13% of 350,000 active. activity score, % at 18.7 µM;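 active means replicate mean at a twofold rise or more, about +100% in these data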;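 further: firefly luciferase made from a UUG start codon reports start codon fidelity; reporter light over untreated wells divided by growth signal over untreated wells; some hits fall short of that in this replicate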
HIV Env fusion: blocks HIV Env-driven cell-cell fusion; HeLa-JRFL Env/CEM21 cell fusion, luciferase; inhibition, % at 12.3 µM; 1.1% of 360,000 active;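 active means mean replicate inhibition score of at least 50 and every replicate individually at or above 50; inconclusive means only one of the two criteria met; inactive means mean below 50 and not all replicates reaching 50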;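 further: 0% = plate neutral controls and 100% = maraviroc near 300 nM; one replicate is shown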
eIF4H FP inh: inhibitors of RNA binding by human eIF4H | Q15056 | eIF4H fluorescence polarization binding assay | inhibition, % at 35 µM | 0.94% of 290,000 active | AID 2012;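 active means 50% or more with normal probe brightness, or confirmed in later tests; inconclusive means above 50% with abnormal brightness, or retests that disagree; inactive means below 50% or failed in later tests; about a fifth of its hits are not listed in these tables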;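 further: calls also rest on retests at 20 µM and on dose response follow-up; 0% = protein and probe with vehicle and 100% = probe without protein; strong numbers were not always called active; many hits fall short of the cut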
MT1-MMP act inh: inhibitors of human MT1-MMP activation. P50281. HT1080 RFP-PRO-GFP cells, GFP/RFP ratio fluorescence, overnight; percent of plate control window, DMSO zero. GFP/RFP ratio change, % at 20 µM. 0.061% of 360,000 active. AID 651647;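 active means GFP/RFP ratio change of at least 30% with cell ATP level not reduced by more than half and red fluorescence within 50% of control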; further: strong numbers were not always called active
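Assay system: HT1080 RFP-PRO-GFP cells | Dosing: 20 µM single dose, 1% DMSO | Incubation: Cells overnight before dosing, compound overnight, 37 °C, 5% CO2 | Evaluation: GFP/RFP fluorescence ratio | Control set: DMSO-only wells and HT1080 RFP-L50D-GFP cell wells as references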
CSC inhib: cancer stem cell inhibition; cancer stem cell-like cells viability, luminescence; inhibition, % at 7.5 µM; 1.1% of 300,000 active; AID 2717;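 active means mean at 75% or more and at least half the replicates too; inconclusive means mean and replicates disagree; tested in HMLE shEcad cells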;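 further: 0% = median of negative and 100% = median of positive control wells; the first replicate is given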
eIF4H FP inh retest: also measured in eIF4H FP inh; calls as there; inhibition, %; compound at 20 µM; confirmation average;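 mean of two retest wells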
PABP polyA inh retest: second read-out of PABP polyA inh, no call of its own (marks repeat the call); inhibition, %; compound at 20 µM; confirmation repeats;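 mean of two retest wells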
MT1-MMP act inh RFP: further read-out of MT1-MMP act inh, marked with its call; RFP signal change, %; measured here: RFP expression control read;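 0 = vehicle wells; hits needed this value within 50% of zero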
The depositor's hits bear a star; i = inactive; ? = inconclusive; . = not tested or not shown.

SMILES | PABP polyA inh | Rce1 inh | UUG fidelity | HIV Env fusion | eIF4H FP inh | MT1-MMP act inh | MT1-MMP act inh RFP | CSC inhib | others
CC1CCC2(CC1)NC(=O)N(CC(=O)NC(=O)Nc1ccc3c(c1)OCCO3)C2=O (configuration not stated) | 4 | i | -11 | 13 | -3 | -2 | -3 | -2
Cc1ccc2nc(NC(=O)COC(=O)c3ccncc3)sc2c1 | ? | i | . | -15 | -6 | 1 | 1 | -10
O=C(COC(=O)c1cc2ccccc2o1)c1ccccc1 | -16 | i | -4 | . | 1 | 8 | 7 | -8
Cc1cccc(N2CCN(C(=O)C3CCCN(S(=O)(=O)c4c(C)noc4C)C3)CC2)c1C (configuration not stated) | . | i | -18 | -20 | . | 2 | -14 | 20
CCOC(=O)c1c(NC(=O)CSc2nnc(Cc3csc(N)n3)n2C)sc(C)c1C | 6 | i | -35 | . | 3 | 7 | -4 | -3
COc1ccc(-c2c(C)oc3c(CN4CCOCC4)c(O)ccc3c2=O)cc1OC | -2 | i | -12 | -8 | -17 | -2 | 2 | -4
COc1ccc(OC)c(S(=O)(=O)Nc2cc3c(cc2N2CCCC2)n(C)c(=O)c(=O)n3C)c1 | 8 | i | -5 | 2 | -2 | 1 | -1 | -12
CC1=C(C(=O)OCCCCCl)C(c2cc3c(cc2Br)OCO3)NC(=O)N1 (configuration not stated) | 3 | i | -16 | 13 | -3 | 0 | 4 | 2
O=C(CSCc1c(F)cccc1F)Nc1ccccc1 | -2 | i | -11 | -62 | -5 | 4 | 2 | -21
Cc1ccc(S(=O)(=O)N2CCN(C(=O)CCC(=O)N3CCc4ccccc43)CC2)cc1 | -2 | i | 6 | . | -10 | -3 | -1 | -4
COC(=O)[C@@H](NC(=O)N1CCC(Cc2ccccc2)CC1)C(C)C | -5 | i | -9 | 18 | -3 | 1 | 3 | -7
O=C(CCN1C(=O)/C(=C/c2ccccc2)SC1=S)N[C@@H](CO)Cc1ccccc1 | 12 | i | -6 | -3 | -6 | -3 | -1 | 34

Entries listed so far that contain an aryl methoxy group (two):
SMILES | PABP polyA inh | Rce1 inh | UUG fidelity | HIV Env fusion | eIF4H FP inh | MT1-MMP act inh | MT1-MMP act inh RFP | CSC inhib | others
COc1ccc(-c2c(C)oc3c(CN4CCOCC4)c(O)ccc3c2=O)cc1OC | -2 | i | -12 | -8 | -17 | -2 | 2 | -4
COc1ccc(OC)c(S(=O)(=O)Nc2cc3c(cc2N2CCCC2)n(C)c(=O)c(=O)n3C)c1 | 8 | i | -5 | 2 | -2 | 1 | -1 | -12

Further structures:
SMILES | PABP polyA inh | Rce1 inh | UUG fidelity | HIV Env fusion | eIF4H FP inh | MT1-MMP act inh | MT1-MMP act inh RFP | CSC inhib | others
CN(C)/C=C/C1=CC(=O)CC(C)(C)C1 | 3 | i | . | 12 | 3 | -14 | 3 | -10
COc1cc(-c2onc3ccc(Br)cc23)cc(OC)c1OC | 20 | . | . | -2 | 5 | -7 | -12 | -17
CCC(C(=O)OCC(=O)NC(=O)c1ccccc1OC)c1ccccc1 (configuration not stated) | . | i | . | 9 | . | -1 | 6 | 0
CCCn1c(C)cc(=O)c2cc(NC(=O)c3cnccn3)ccc21 | 2 | i | -17 | . | -8 | 0 | 2 | -3
COc1cccc(N2CCN(C(=O)c3ccccc3SCC(=O)NCc3ccco3)CC2)c1 | . | . | -16 | -25 | . | 4 | -3 | -22
Cc1ccccc1C(=O)OCC(=O)N(C)c1c(N)n(Cc2ccccc2)c(=O)[nH]c1=O | . | . | . | 5 | . | 2 | 4 | -3
Cc1cc(C(=O)CSc2nnc(-c3ccccc3)n2-c2ccccc2)c(C)n1-c1ncn[nH]1 | -5 | i | 653* | -116 | 2 | 1 | 5 | -11
CC(C)c1cc(C(=O)N(C)C2CCCN(Cc3ccccc3F)C2)n(C)n1 (configuration not stated) | . | . | -13 | 2 | . | 3 | 2 | .
O=C(N/N=C/c1ccc(Br)cc1)c1ccccc1-n1cccc1 | 1 | i | . | . | -5 | -3 | -7 | 45
CC1Sc2ccc(S(=O)(=O)CCC(=O)NC3CCCCCC3)cc2NC1=O (configuration not stated) | 4 | i | -22 | 10 | -4 | 2 | 2 | 3
Cn1cccc1C(=O)OCC(=O)N1CCN(c2ccccc2)CC1 | . | . | -37 | -7 | . | 1 | 2 | -13
CCOC(=O)CSc1nc2sc3c(c2c(=O)n1-c1ccc(OCC)cc1)CCN(C)C3 | -5 | i | -4 | 32 | -4 | -1 | 1 | -15
CCn1c(SCC#N)nc2ccccc2c1=O | 10 | i | -19 | -13 | -8 | -1 | 3 | -12
C/C(CC(=O)Nc1ccc(Cl)cc1Cl)=N\NC(=O)c1ccncc1 | 10 | i | . | -10 | -8 | 0 | 0 | 2
CC(=O)c1cccc(NC(=O)COc2ccc(S(=O)(=O)N3CCOCC3)cc2)c1 | -5 | i | -10 | 0 | -10 | -1 | -1 | -6
CC1(C)CC(=O)C=C(c2ccc(-c3ccccc3)cc2)C1 | . | . | -6 | -240 | . | -9 | -4 | -10
CSCCC(NC(=O)CCN1C(=O)c2ccccc2C1=O)C(=O)O (configuration not stated) | -8 | i | 0 | -11 | -5 | -3 | 4 | -12
CSC1=NC2(CC(c3ccccc3)Oc3cc(O)ccc32)CC(C)(C)N1 (configuration not stated) | 0 | i | 9 | . | 1 | -9 | -1 | -4
O=C(NCCOc1ccccc1)[C@@H]1CCCN1C(=O)c1cccs1 | . | . | -10 | 18 | . | 4 | -1 | .
COc1cccc(-c2ccc(C#N)c(OC(=O)c3c(Cl)cccc3Cl)n2)c1 | 6 | i | . | . | -2 | 8 | -17 | 77*
COc1ccccc1CNC(=O)c1ccc(CS(=O)(=O)c2ccccc2)o1 | 3 | i | 9 | -3 | -7 | 4 | 2 | -5
O=C(CN(Cc1ccccc1)C(=O)CCC(=O)Nc1ccccn1)NCc1ccco1 | -8 | i | -5 | . | -5 | 4 | -5 | -10
CSc1ccccc1OCc1cc(C(=O)NCc2cccc(C)n2)no1 | -4 | i | -24 | -71 | -10 | 1 | 2 | -6
Cc1ccccc1-n1c(-c2ccco2)n[nH]c1=S | -1 | i | -14 | 6 | 1 | 5 | 6 | -4
Cc1ccccc1N(C(=O)Cn1nnc(-c2ccc(F)cc2)n1)C(C(=O)NC(C)(C)C)c1ccncc1 (configuration not stated) | 5 | i | -13 | -5 | -2 | -7 | -15 | -11
COc1ccc(NC(=O)c2c3c(nc4ccccc24)CCC3)cc1 | 8 | i | -18 | 4 | -13 | 0 | -2 | 3
CC(C)C[C@H](NC(=O)C1CCN(S(=O)(=O)c2ccccc2)CC1)C(=O)NCc1cccnc1 | . | i | 13 | 6 | . | -1 | 3 | -17
O=C(Nc1ccc(NC(=O)c2cccnc2)cc1)c1ccccc1 | 3 | i | -18 | 4 | -9 | -5 | -2 | -9
O=C(Cc1cccc2ccccc12)NNC(=O)Nc1cccc(Cl)c1 | -6 | i | 7 | 1 | -3 | 4 | -1 | 14
CC(C)C1C(=O)N(Cc2cn(CCC3OCCO3)nn2)CCS(=O)(=O)N1Cc1ccc(-c2ccccc2)cc1 (configuration not stated) | . | . | 3 | 13 | . | 2 | -10 | .
O=C1Nc2cc(Cl)c(Cl)cc2N(O)N1c1cccc(Cl)c1 | -4 | i | . | 1 | -5 | 7 | 4 | 4
O=C(O)c1ccc2c(c1)C(=O)N(c1cc([N+](=O)[O-])ccn1)C2=O | 16 | i | -4 | 8 | -6 | -2 | 2 | .
Cn1ccnc1SCCNC(=O)C1CCC(=O)N(Cc2ccc(Cl)cc2)C1 (configuration not stated) | -4 | i | -8 | 8 | -12 | -3 | 1 | 3
Cc1ccc(CN2C(=O)CCC2C(=O)NCc2ccco2)cc1 (configuration not stated) | 8 | i | -4 | . | 2 | 2 | 3 | -5
O=C(Cn1ncc(N2CCOCC2)c(Br)c1=O)c1ccc(Cl)cc1 | 3 | i | -19 | -39 | -9 | 2 | 0 | -1
CC(=O)Nc1ccc(S(=O)(=O)Nc2cccc(-c3cn4cccnc4n3)c2)cc1 | 4 | i | . | 20 | 86 | 5 | 6 | 19 | eIF4H FP inh retest=0;PABP polyA inh retest=7

In the list so far, seven contain an aryl thioether with sulfur outside any ring:
SMILES | PABP polyA inh | Rce1 inh | UUG fidelity | HIV Env fusion | eIF4H FP inh | MT1-MMP act inh | MT1-MMP act inh RFP | CSC inhib | others
CCOC(=O)c1c(NC(=O)CSc2nnc(Cc3csc(N)n3)n2C)sc(C)c1C | 6 | i | -35 | . | 3 | 7 | -4 | -3
COc1cccc(N2CCN(C(=O)c3ccccc3SCC(=O)NCc3ccco3)CC2)c1 | . | . | -16 | -25 | . | 4 | -3 | -22
Cc1cc(C(=O)CSc2nnc(-c3ccccc3)n2-c2ccccc2)c(C)n1-c1ncn[nH]1 | -5 | i | 653* | -116 | 2 | 1 | 5 | -11
CCOC(=O)CSc1nc2sc3c(c2c(=O)n1-c1ccc(OCC)cc1)CCN(C)C3 | -5 | i | -4 | 32 | -4 | -1 | 1 | -15
CCn1c(SCC#N)nc2ccccc2c1=O | 10 | i | -19 | -13 | -8 | -1 | 3 | -12
CSc1ccccc1OCc1cc(C(=O)NCc2cccc(C)n2)no1 | -4 | i | -24 | -71 | -10 | 1 | 2 | -6
Cn1ccnc1SCCNC(=O)C1CCC(=O)N(Cc2ccc(Cl)cc2)C1 (configuration not stated) | -4 | i | -8 | 8 | -12 | -3 | 1 | 3

(list continues)
SMILES | PABP polyA inh | Rce1 inh | UUG fidelity | HIV Env fusion | eIF4H FP inh | MT1-MMP act inh | MT1-MMP act inh RFP | CSC inhib | others
Cc1cc(S(=O)(=O)Nc2ccc3c(c2)COC3=O)ccc1F | -3 | i | . | 12 | -2 | 3 | 4 | -5
O=C(NCCc1c[nH]c2ccccc12)c1ccc([N+](=O)[O-])o1 | . | . | -8 | ? | . | -8 | -10 | .
Clc1ccc(-c2nc3ccc(Br)cn3c2Cc2cccc(Cl)c2)cc1 | . | . | -11 | -116 | . | -9 | -8 | .
O=C(COC(=O)C1CCN(S(=O)(=O)c2c(Cl)cccc2Cl)CC1)NCc1ccco1 | . | . | -8 | -1 | . | 3 | 3 | -6
CC(NS(=O)(=O)c1ccc(Br)cc1F)[C@H](O)c1ccccc1 (some centres not stated) | . | . | -8 | -3 | . | 1 | 1 | .
Cc1ccc(S(=O)(=O)CC(CN2CCOCC2)N2CCOCC2)cc1 (configuration not stated) | 4 | i | . | -9 | -11 | 3 | 9 | -7
O=C(Nc1ccccc1C(=O)N1CCCCCC1)c1ccc(Cl)cc1 | -8 | i | . | 10 | 4 | 0 | 0 | .
O=C(NCC(=O)N1CCN(S(=O)(=O)/C=C/c2ccccc2)CC1)c1ccc(Cl)cc1 | -5 | i | -6 | 15 | -12 | . | . | -7
COc1ccccc1-n1c2nc3ccccc3nc2c2c(=O)n(-c3cc(C)cc(C)c3)cnc21 | -3 | i | . | 6 | 0 | -4 | -12 | -11
Oc1cccc(Nc2ncnc3ccccc23)c1 | 19 | i | . | . | -4 | -6 | 0 | 32
CCCCC(=O)OCc1c(-c2ccccc2)ncc2ccccc12 | . | . | -1 | -1 | . | 1 | 2 | -14
Cc1ccc([N+](=O)[O-])cc1NC(=O)Nc1ccc(S(N)(=O)=O)cc1 | 2 | i | -24 | 1 | -11 | 7 | 3 | -2
Cc1cc(=O)oc(C)c1C(=O)NCCc1ccc(F)cc1 | -1 | i | -6 | -84 | -2 | 3 | 1 | 3
